# Compound activity as filed in PubChem.
# Autofluor counter = counter-screen for toxin protease inhibitors: compound fluorescence | compound autofluorescence counterscreen, microsphere flow cytometry; stronger effect = higher value | fluorescence intensity (test concentration not listed) | 3.1% of 360,000 active;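 active = at least 3 SD above the mean of all compounds, about 16000 in these data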;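 also: 100 nL of 1 mM stock went into each well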
# PrP 5UTR inh = inhibition of PrP 5' UTR reporter expression. AID 488862, 2010. 0.35% of 340,000 active. inhibition, % (test concentration not listed). cell-based PrP 5' UTR mRNA reporter, plate reader;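 active = every replicate at 50% or more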;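 also: 0 = median of the neutral control wells; tested in H4 reporter cells; numbers are from one replicate; inactives centre near -14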
# An asterisk follows results filed as active; & = joins results of further samples. These rows are one share of the data (hit frequency here may not be typical).
c1ccc(COc2ncnc3c2ncn3CCCNCC2CCCO2)cc1 (centres undefined)
  Autofluor counter: 2958	PrP 5UTR inh: -36.4
C=CC(=O)Nc1ccc(CN2C(=O)N(c3c(Cl)c(OC)cc(OC)c3Cl)Cc3cnc(NCCCCN(CC)CC)nc32)cc1
  Autofluor counter: 4259	PrP 5UTR inh: -34.9
Cc1ccc(S(=O)(=O)N(C)c2ccc(OC(=O)c3cc(=O)[nH]c4ccccc34)cc2)cc1
  Autofluor counter: 5573	PrP 5UTR inh: 3.7
COc1ccc2c(c1)C(=O)N1[C@H]3c4cc(OC)ccc4OC[C@@H]3[C@H](c3ccccc3)[C@]1(C)C(=O)N2
  Autofluor counter: 3480	PrP 5UTR inh: -80.5
O=C1C=C(O)c2cccc(O)c2C1=O
  Autofluor counter: 5847	PrP 5UTR inh: -18.9
CCN1C[C@@H]2[C@@H]3C(=O)N(Cc4ccccc4)C(=O)[C@@H]3[C@](C)(C1=O)N2C(=O)c1ccc(F)cc1
  Autofluor counter: 4160	PrP 5UTR inh: -13.2
Cc1cc2nc(-c3ccncc3)cc(C(F)(F)F)n2n1
  Autofluor counter: 4327	PrP 5UTR inh: -10.0
c1ccc(C(=C2CCCO2)c2ccccc2)cc1
  Autofluor counter: 3314	PrP 5UTR inh: -13.7
COc1cc(OC)cc(C(=O)N[C@H](C(=O)OCC(=O)c2ccc(C)c([N+](=O)[O-])c2)C(C)C)c1
  Autofluor counter: 3597	PrP 5UTR inh: 42.5
Cc1ccc2nc(SCC(=O)N3CCCc4ccccc43)nc(=O)n2c1
  Autofluor counter: 5933	PrP 5UTR inh: 1.2
Brc1ccc(CN2CC[C@H]3C=CCc4cccc(c43)C2)cc1
  Autofluor counter: 4630	PrP 5UTR inh: -22.0
CN(C)CCNc1ccc(CO)c2sc3ccc(O)cc3c(=O)c12
  Autofluor counter: 2751	PrP 5UTR inh: 0.5
CC(C)NC[C@H](O)COc1ccc(CC(N)=O)cc1
  Autofluor counter: 6074	PrP 5UTR inh: -32.4
CCOc1ccc(/C=c2\sc3nc(-c4ccco4)nn3c2=O)cc1OCC
  Autofluor counter: 4378	PrP 5UTR inh: -30.2
CCCCNC(=O)COC(=O)c1ccc(Cl)c(S(N)(=O)=O)c1
  Autofluor counter: 2373	PrP 5UTR inh: -10.0
COC(=O)C12OCC34C(CC5C(C)=C(O)C(=O)CC5(C)C3C(O)C1O)OC(=O)C(OC(=O)C=C(C)C)C24 (centres undefined)
  Autofluor counter: 3902	PrP 5UTR inh: 82.6*
Cn1nnnc1Sc1ncnc2scc(-c3cccc(Br)c3)c12
  Autofluor counter: 4201	PrP 5UTR inh: -3.7
C[C@H](O)Cc1cn(-c2cc3cc(C#Cc4ccsc4)ccc3oc2=O)nn1
  Autofluor counter: 4012	PrP 5UTR inh: -16.5
CN(C)c1ccc(/C=C(\C#N)c2ccccc2)cc1
  Autofluor counter: 3842	PrP 5UTR inh: -33.0
C#CCOCCOCCOCCNc1nc(N2CCN(C(=O)CCCCCCCCCCNC(=O)[C@@H](CCSC)n3cc(CCO)nn3)CC2)nc(N2CCN(C(=O)CCCCCCCCCCNC(=O)[C@H]([C@@H](C)CC)n3cc(CCCCN=C(N)N)nn3)CC2)n1
  Autofluor counter: 4515	PrP 5UTR inh: -1.1
COc1ccc([C@H]2CC(=O)C=C(c3cccc(Br)c3)C2)cc1
  Autofluor counter: 3630	PrP 5UTR inh: -12.4
CCOC(=O)[C@H]1[C@H]2COc3ccc(Cl)cc3[C@@H]2N2C(=O)CN(C)C(=O)[C@@]12C
  Autofluor counter: 3934	PrP 5UTR inh: -25.2
CC(C)C[C@@H](CNCC(=O)[C@H](Cc1ccccc1)NC(=O)c1[nH]cnc1C(=O)N[C@H](CN)CC(C)C)NC(=O)c1nc[nH]c1C(=O)N[C@@H](CC(=O)O)C(=O)O
  Autofluor counter: 3617	PrP 5UTR inh: -5.9
C#CCOCCOCCOCCNc1nc(N2CCN(C(=O)[C@H](C(C)C)n3cc(CCO)nn3)CC2)nc(N2CCN(C(=O)[C@H]([C@@H](C)CC)n3cc(CCC(=O)O)nn3)CC2)n1
  Autofluor counter: 4142	PrP 5UTR inh: -14.3
CN(N=O)c1ccc(CC2CCc3ccccc32)cc1 (centres undefined)
  Autofluor counter: 3985	PrP 5UTR inh: -62.8

# Rewritten tab-delimited: 3 of the compounds above.
Molecule	Autofluor counter	PrP 5UTR inh
CN(C)c1ccc(/C=C(\C#N)c2ccccc2)cc1	3842	-33.0
C#CCOCCOCCOCCNc1nc(N2CCN(C(=O)CCCCCCCCCCNC(=O)[C@@H](CCSC)n3cc(CCO)nn3)CC2)nc(N2CCN(C(=O)CCCCCCCCCCNC(=O)[C@H]([C@@H](C)CC)n3cc(CCCCN=C(N)N)nn3)CC2)n1	4515	-1.1
COc1ccc([C@H]2CC(=O)C=C(c3cccc(Br)c3)C2)cc1	3630	-12.4

# Going on with the list:
COc1cc2c3c(c1OC)Oc1ccc(cc1)C[C@H]1c4c(cc(OC)c(OC)c4Oc4ccc(cc4)C[C@@H]3N(C)CC2)CCN1C
  Autofluor counter: 6456	PrP 5UTR inh: 13.7
CCCCCC1(C(C)C)C(=O)NC(=S)NC1=O
  Autofluor counter: 3539	PrP 5UTR inh: -3.1
CCN1C(=O)[C@H]2[C@@H](c3ccc(-c4ccc(C(C)=O)cc4)c(OC)c3)N3CCCC[C@@]3(C(=O)OC)[C@H]2C1=O
  Autofluor counter: 4090	PrP 5UTR inh: -23.7
CC(=O)Nc1ccc(SC[C@H](C)CN2CC[C@H](O)CCC2=O)cc1
  Autofluor counter: 3674	PrP 5UTR inh: -13.5
CCCC(=O)NC1=C(Cl)C(=O)c2ccccc2C1=O
  Autofluor counter: 3528	PrP 5UTR inh: -32.5
C=CCC[C@@H](Cc1ccc(F)cc1)C(=O)OC[C@H](Cc1c[nH]c2ccccc12)NC(=O)[C@@H](CC=C)CC(=O)N[C@@H](CO)Cc1ccccc1
  Autofluor counter: 3517	PrP 5UTR inh: -28.3
C=C1[C@@H](O)[C@H](CC(C)C)N(Cc2ccccc2Br)S1(=O)=O
  Autofluor counter: 4072	PrP 5UTR inh: -11.0
COC(=O)C1=C(c2ccc(F)cc2OCc2ccccc2)C[C@@H]2CC[C@H]1N2C(=O)NCc1ccccc1OC
  Autofluor counter: 3785	PrP 5UTR inh: -7.6
C=CCO/N=C(/CCC)C1=C(N)CC(C)(C)CC1=O
  Autofluor counter: 2026	PrP 5UTR inh: -15.4
C=C[C@H](Cc1ccccc1)N(Cc1ccccc1)S(=O)(=O)N(Cc1ccccc1)[C@H](C=C)Cc1ccccc1
  Autofluor counter: 3601	PrP 5UTR inh: -2.2
CC(=O)OC1C(O)C(C)OC(OC2C(OC(=O)C3CCC4C(C3)OC3(CC(OC(=O)/C=C/c5ccccc5)C(C)CO3)C43CO3)OC(C)C(O)C2OC(C)=O)C1O (centres undefined)
  Autofluor counter: 3288	PrP 5UTR inh: 83.7*
COc1ccc(S(=O)(=O)Nc2cccc3c2O[C@H](CN(C)C(=O)Nc2c(C)noc2C)[C@@H](C)CN([C@H](C)CO)C3=O)cc1
  Autofluor counter: 3357	PrP 5UTR inh: -8.0
C=CCC[C@@H](Cc1ccc(F)cc1)C(=O)OC[C@@H](NC(=O)[C@@H](CC=C)CC(=O)N[C@H](CO)Cc1ccccc1)C(C)(C)C
  Autofluor counter: 3075	PrP 5UTR inh: -9.6
Cc1cc2n(n1)C(c1ccccc1)CC(c1ccc(Br)cc1)=N2 (centres undefined)
  Autofluor counter: 9286	PrP 5UTR inh: -37.9
CCOC(=O)/C(=C\c1ccccc1)C(=O)CCN1CCOCC1
  Autofluor counter: 3510	PrP 5UTR inh: -16.2
Cc1ccc(S(=O)(=O)/N=C2/NC(=O)/C(=C\c3ccco3)S2)cc1
  Autofluor counter: 2907	PrP 5UTR inh: -22.7
Cc1ccc(S(=O)(=O)Oc2ccc(/C=N/N=C3/NC(=O)C(CC(=O)O)S3)cc2)cc1 (centres undefined)
  Autofluor counter: 4174	PrP 5UTR inh: -22.1
CCN1C(=O)CS/C1=N\c1nccs1
  Autofluor counter: 5227	PrP 5UTR inh: -1.1
O=[N+]([O-])c1cccc(COc2ccc(CN3CCCC3)cc2)c1
  Autofluor counter: 2990	PrP 5UTR inh: -117.5
CC(C)NC(=O)N(C)C[C@H]1Oc2c(NC(=O)Nc3ccccc3)cccc2C(=O)N([C@H](C)CO)C[C@@H]1C
  Autofluor counter: 3204	PrP 5UTR inh: -13.6
COC(=O)C1=C(c2ccc(-c3ccccc3)c(F)c2)C[C@@H]2CC[C@H]1N2C(=O)NCCOc1ccc(OC)cc1
  Autofluor counter: 4102	PrP 5UTR inh: -14.2
CC(=O)Nc1c(I)c(C(=O)N[C@H]2C(O)O[C@H](CO)[C@@H](O)[C@@H]2O)c(I)c(N(C)C(C)=O)c1I (some centres undefined)
  Autofluor counter: 6427	PrP 5UTR inh: -16.2
CC(C)CC(=O)N[C@H](C(=O)N[C@H](C(=O)N[C@@H](CC(C)C)[C@@H](O)CC(=O)N[C@@H](C)C(=O)N[C@@H](CC(C)C)[C@@H](O)CC(=O)O)C(C)C)C(C)C
  Autofluor counter: 6308&4300	PrP 5UTR inh: -17.5
Cn1c(=O)c2cc(S(=O)(=O)NC(C(=O)NC3CCCCC3)c3ccccc3)ccc2n(C)c1=O (centres undefined)
  Autofluor counter: 5146	PrP 5UTR inh: -17.2
Cc1cn(CC(=O)NCCN2CCOCC2)c(=O)[nH]c1=O
  Autofluor counter: 3548	PrP 5UTR inh: -9.2

CCN1C[C@@H]2[C@@H]3C(=O)N(C)C(=O)[C@@H]3[C@](Cc3ccccc3)(C1=O)N2C(=O)c1ccc(C(C)(C)C)cc1
  Autofluor counter: 4407	PrP 5UTR inh: -14.1
O=[N+]([O-])c1ccc(COc2cccc(CN3CCCCC3)c2)cc1
  Autofluor counter: 4063	PrP 5UTR inh: -2.9
O=C(N[C@@H]1C/C=C\C[C@H](CC(=O)N(CCO)Cc2ccccc2)C(=O)N[C@@H](Cc2ccccc2)COC1=O)OCC1c2ccccc2-c2ccccc21
  Autofluor counter: 3561	PrP 5UTR inh: -26.9
Cc1cc(/C=C\c2ccc3cc(N(C)C)ccc3[n+]2C)c(C)n1-c1ccccc1
  Autofluor counter: 3555	PrP 5UTR inh: 73.5*
C[C@@]12C(=O)Nc3cc(F)ccc3C(=O)N1[C@H]1c3ccccc3OC[C@@H]1[C@@H]2c1ccccc1
  Autofluor counter: 4180	PrP 5UTR inh: -11.3
CN(C)c1ccc(C=c2c3ccccc3n3c2cc(-c2ccc(Cl)cc2)[n+]3C)cc1
  Autofluor counter: 2293	PrP 5UTR inh: -30.1
O=[N+]([O-])c1cccc(COc2ccccc2CN2CCCC2)c1
  Autofluor counter: 3037	PrP 5UTR inh: -11.5
C[C@@H]1CN([C@@H](C)CO)C(=O)c2cc(N(C)C)ccc2O[C@@H]1CN(C)S(C)(=O)=O
  Autofluor counter: 4499	PrP 5UTR inh: -9.8

# Ordered by SMILES length (falling): some entries from above.
CC(C)CC(=O)N[C@H](C(=O)N[C@H](C(=O)N[C@@H](CC(C)C)[C@@H](O)CC(=O)N[C@@H](C)C(=O)N[C@@H](CC(C)C)[C@@H](O)CC(=O)O)C(C)C)C(C)C
  Autofluor counter: 6308&4300	PrP 5UTR inh: -17.5
O=C(N[C@@H]1C/C=C\C[C@H](CC(=O)N(CCO)Cc2ccccc2)C(=O)N[C@@H](Cc2ccccc2)COC1=O)OCC1c2ccccc2-c2ccccc21
  Autofluor counter: 3561	PrP 5UTR inh: -26.9
CCN1C[C@@H]2[C@@H]3C(=O)N(C)C(=O)[C@@H]3[C@](Cc3ccccc3)(C1=O)N2C(=O)c1ccc(C(C)(C)C)cc1
  Autofluor counter: 4407	PrP 5UTR inh: -14.1
CC(=O)Nc1c(I)c(C(=O)N[C@H]2C(O)O[C@H](CO)[C@@H](O)[C@@H]2O)c(I)c(N(C)C(C)=O)c1I (some centres undefined)
  Autofluor counter: 6427	PrP 5UTR inh: -16.2
CC(C)NC(=O)N(C)C[C@H]1Oc2c(NC(=O)Nc3ccccc3)cccc2C(=O)N([C@H](C)CO)C[C@@H]1C
  Autofluor counter: 3204	PrP 5UTR inh: -13.6
COC(=O)C1=C(c2ccc(-c3ccccc3)c(F)c2)C[C@@H]2CC[C@H]1N2C(=O)NCCOc1ccc(OC)cc1
  Autofluor counter: 4102	PrP 5UTR inh: -14.2
C[C@@]12C(=O)Nc3cc(F)ccc3C(=O)N1[C@H]1c3ccccc3OC[C@@H]1[C@@H]2c1ccccc1
  Autofluor counter: 4180	PrP 5UTR inh: -11.3
C[C@@H]1CN([C@@H](C)CO)C(=O)c2cc(N(C)C)ccc2O[C@@H]1CN(C)S(C)(=O)=O
  Autofluor counter: 4499	PrP 5UTR inh: -9.8
Cn1c(=O)c2cc(S(=O)(=O)NC(C(=O)NC3CCCCC3)c3ccccc3)ccc2n(C)c1=O (centres undefined)
  Autofluor counter: 5146	PrP 5UTR inh: -17.2
Cc1ccc(S(=O)(=O)Oc2ccc(/C=N/N=C3/NC(=O)C(CC(=O)O)S3)cc2)cc1 (centres undefined)
  Autofluor counter: 4174	PrP 5UTR inh: -22.1
CN(C)c1ccc(C=c2c3ccccc3n3c2cc(-c2ccc(Cl)cc2)[n+]3C)cc1
  Autofluor counter: 2293	PrP 5UTR inh: -30.1
Cc1cc(/C=C\c2ccc3cc(N(C)C)ccc3[n+]2C)c(C)n1-c1ccccc1
  Autofluor counter: 3555	PrP 5UTR inh: 73.5*
Cc1ccc(S(=O)(=O)/N=C2/NC(=O)/C(=C\c3ccco3)S2)cc1
  Autofluor counter: 2907	PrP 5UTR inh: -22.7
O=[N+]([O-])c1cccc(COc2ccc(CN3CCCC3)cc2)c1
  Autofluor counter: 2990	PrP 5UTR inh: -117.5
Cc1cn(CC(=O)NCCN2CCOCC2)c(=O)[nH]c1=O
  Autofluor counter: 3548	PrP 5UTR inh: -9.2
